HPGD inh = qHTS Assay for Inhibitors of HPGD (15-Hydroxyprostaglandin Dehydrogenase) | 15-hydroxyprostaglandin dehydrogenase [NAD(+)] (Homo sapiens), P15428 | purified HPGD, NADH fluorescence kinetic, PGE2 substrate | Potency, µM, for inactives: at the top dose activity change, negative = inhibition, usual class: inhibitors | 150,000 compounds, 4.3% hits; active = well fitted inhibition curve with a large enough effect (not every such curve was filed as active); inconclusive = small, poorly fitted or top-dose-only effect, or another doubt; inactive = no such curve, though single readings can be large or run the other way;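 further: top concentration of the series not given in the record; plate controls included wells without enzyme; inactives centre near -10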
Target sequence (P15428 whole entry, looked up): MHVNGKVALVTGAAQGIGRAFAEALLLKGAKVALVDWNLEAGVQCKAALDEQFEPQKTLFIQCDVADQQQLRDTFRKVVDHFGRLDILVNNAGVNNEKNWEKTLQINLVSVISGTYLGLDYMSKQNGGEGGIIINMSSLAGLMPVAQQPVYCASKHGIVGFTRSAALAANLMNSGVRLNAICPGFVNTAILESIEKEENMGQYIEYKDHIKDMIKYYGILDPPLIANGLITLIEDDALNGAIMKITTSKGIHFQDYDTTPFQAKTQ
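20 nM HPGD preincubated 15 min at room temperature with compound in 50 mM Tris-HCl pH 8, 0.01% Tween 20. Started with 1 mM NAD+ and 30 uM prostaglandin E2; NADH fluorescence (360/450 nm) read 5 times over 30-s intervals, last minus first.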
Active calls of the source: *; ? = inconclusive; & = joins results of further samples; [ ] = dose if it differs, or a comment. On the % scale 0 is the no-effect control and ±100 the full control effect; potency means the concentration at half of the fitted maximal effect. This is a subset; rates above refer to the full screens.

The first seven records (preview)
Structure | HPGD inh
COC(=O)c1ccc(N2CCN(C)CC2)c(NC(=O)c2cc3ccccc3o2)c1 | -29%
O=C(NCc1ccccc1)C1CCCN(C(=O)Nc2ccccc2)C1 (configuration not stated) | -17%
COc1cccc(C(=O)/C=C/Nc2ccc(S(=O)(=O)Nc3onc(C)c3C)cc2)c1 | ?
CCOc1ccc(OCC)c(NC(=O)CC2Oc3ccccc3NC2=O)c1 (configuration not stated) | -9%
N/C(=N\OC(=O)COc1ccc2ccccc2c1)c1cccnc1 | -28%
COc1ccccc1NC(=O)N1CCCC1C(=O)NCc1ccccc1 (configuration not stated) | -4%
O=C(OCc1cnc(Cl)s1)c1ccccc1Cl | -11%

This part in full, from the first entry:
Structure | HPGD inh
COC(=O)c1ccc(N2CCN(C)CC2)c(NC(=O)c2cc3ccccc3o2)c1 | -29%
O=C(NCc1ccccc1)C1CCCN(C(=O)Nc2ccccc2)C1 (configuration not stated) | -17%
COc1cccc(C(=O)/C=C/Nc2ccc(S(=O)(=O)Nc3onc(C)c3C)cc2)c1 | ?
CCOc1ccc(OCC)c(NC(=O)CC2Oc3ccccc3NC2=O)c1 (configuration not stated) | -9%
N/C(=N\OC(=O)COc1ccc2ccccc2c1)c1cccnc1 | -28%
COc1ccccc1NC(=O)N1CCCC1C(=O)NCc1ccccc1 (configuration not stated) | -4%
O=C(OCc1cnc(Cl)s1)c1ccccc1Cl | -11%
COCC(=O)N(Cc1cc2cc(OC)ccc2[nH]c1=O)c1ccccc1 | ?
O=C(NCCC1=CCCCC1)C1CCN(C(=O)Nc2ccccc2)CC1 | -2%
COc1cccc(N2CCN(C3CCCC(C)C3)CC2)c1 (configuration not stated) | -3%
COc1ccc(C(C)NC(=O)C2CCCO2)cc1OC (configuration not stated) | -8%
Cc1ccc(Cl)cc1N1CCN(C(=O)c2ccc(CN3CCOCC3)cc2)CC1 | -6%
O=C(Cc1ccccc1)Nc1ccc(N2CCN(Cc3ccccc3F)CC2)cc1 | -12%
CCC1CSC(Nc2ccc(C(=O)/C=C/c3ccc(OC)c(OC)c3)cc2)=N1 (configuration not stated) | 18µM*
CNC(=O)c1ccc(CNC(=O)OCC(F)(F)F)cc1 | -9%
S=c1[nH]nc(CCc2ccccc2)n1-c1ccccc1 | 16µM*
COc1ccc(N2CCN(CCC(N)=O)CC2)cc1 | -9%
COCC(=O)OCC(=O)Nc1cc(C(C)(C)C)nn1-c1ccccc1 | -5%
O=C1C2C3C=CC(C4CC34)C2C(=O)N1CCc1ccccc1 (configuration not stated) | -3%
Cc1cc(N)n(-c2ncnc3scc(-c4ccccc4)c23)n1 | -15%
COc1ccc(CC(=O)NNc2ncnc3c2cnn3C)cc1 | -8%
COc1ccc(OC)c(C2=NOC(C(=O)NCCN3CCOCC3)C2)c1 (configuration not stated) | ?
CC1(C)Cc2c(c(-c3ccccc3)nc3[nH][nH]c(=O)c23)CO1 | 1%
COC(=O)c1ccc(NC(=O)c2ccccc2)o1 | 32µM*
CC(=O)N/C(=N\OCc1ccccc1Cl)c1nonc1NC(C)=O | -1%
CCCCN(CCCC)CCC(O)c1cc2c(Cl)cc(Cl)cc2c2cc(C(F)(F)F)ccc12 (configuration not stated) | -9%
Cc1ccc(Nc2c(-c3ccc(N4CCOCC4)cc3)nc3ncccn23)cc1C | 60%[activator]
CN(c1ccccc1C(=O)N1CCc2ccccc2C1)S(C)(=O)=O | -4%
CCN(Cc1ccccc1)C(=O)c1c[nH]c2ccc(S(=O)(=O)N(C)CCC#N)cc2c1=O | ?
CCCN(CCC)CC(O)CN(c1ccccc1)S(=O)(=O)c1ccc(C)cc1 (configuration not stated) | -5%
Cc1cc2c(C)nc(N/N=C/c3ccc([N+](=O)[O-])cc3)nc2o1 | -4%
COc1ccc(C2CC(C(F)(F)F)n3nc(C(=O)Nc4c(C)n(C)n(-c5ccccc5)c4=O)c(Cl)c3N2)cc1 (configuration not stated) | -3%
C=CCn1c(Cc2ccc(OC(C)C)c(Cl)c2)nnc1SCC(N)=O | -9%
O=C(CCN1C(=O)C2C3C=CC(C3)C2C1=O)NCCc1ccccc1Cl (configuration not stated) | -13%
Cc1ccccc1OCCCC(=O)NCc1ccco1 | 25µM*
N#Cc1cccc(NC(=O)N2CC3(CCN(C(=O)c4cc(C(F)(F)F)cc(C(F)(F)F)c4)CC3)C2)c1 | -5%
COc1ccc(C(=O)n2nnc3ccccc32)cc1Br | -23%
CCN(CC)S(=O)(=O)c1ccc(N=Cc2c(C)c(C#N)c(=O)n(C)c2O)cc1 | -21%
CCOc1ccc(N(CC(=O)O)S(=O)(=O)c2ccc(OC)c(OC)c2)cc1 | -4%
O=c1n(Cc2ccccc2Cl)c2sc3c(c2c2ncnn12)CCCC3 | -9%
Cc1[nH]c(C(=O)O)c(C)c1C(=O)OC(C)C | -11%
CC(=O)N1CCC2(CC1)CN(Cc1ccc(C#N)cc1)C2 | -10%
COc1ccc(N(CC(=O)Nc2ccc(S(=O)(=O)N3CCCCC3)cc2)S(C)(=O)=O)cc1OC | -2%
CCCCCCCCC(=O)N/N=C(\C)c1ccc(O)cc1O | ?
Cc1cc(NC(=S)NC(=O)CC(C)C)ccc1Br | -29%
O=C(O)c1ccccc1N[C@H](c1ccccc1)c1ccc2cccnc2c1O | ?
COc1ccccc1CNC(=O)c1cnn2c(C(F)F)cc(C)nc12 | -18%
O=C(NCc1cccs1)C(Cc1ccccc1)NS(=O)(=O)c1cccs1 (configuration not stated) | -9%
O=C(Nc1ccc(N2CCOCC2)cc1N1CCOCC1)c1cccs1 | -15%
Cc1cccc(CCNC(=O)c2cc(=O)[nH]c3ccc(Br)cc23)c1 | -6%

The last two entries of the section above are carried over, then new ones follow.
Structure | HPGD inh
O=C(Nc1ccc(N2CCOCC2)cc1N1CCOCC1)c1cccs1 | -15%
Cc1cccc(CCNC(=O)c2cc(=O)[nH]c3ccc(Br)cc23)c1 | -6%
CCS(=O)(=O)N1CCCC(C(=O)NC2CCCC2)C1 (configuration not stated) | 2%
CCc1c(C)nc2ncnn2c1N1CCC(C(=O)N2CCN(c3ccccc3)CC2)CC1 | -7%
O=C(O)CCN1C(=O)C2CCCCC2C1=O (configuration not stated) | -5%
Cn1cccc1C(=O)N1CCC2(CCN(C(=O)Nc3ccccc3)CC2)CC1 | -8%
O=C(CCC(=O)OCC(=O)c1ccc(Br)cc1)Nc1cccc2cccnc12 | -2%
CC(=O)c1ccc(OCC(O)CN2CCOCC2)cc1 (configuration not stated) | -7%
Cc1ccc2c(CC(=O)NC3=NCCS3)coc2c1 | -7%
CC(=O)c1cn(CC(=O)NCc2cccnc2)c2ccccc12 | -11%
c1ccc(N2CCN(C3CCSC3)CC2)cc1 (configuration not stated) | -14%
Cc1cccc(NC(=O)CSc2nc3[nH]ncc3c(=O)n2-c2ccccc2)c1 | -11%
O=C1/C(=C/c2ccncc2)SC(=S)N1C1CCCCC1 | -13%
CCCC1(CCC)NC(=O)N(CC(=O)N2CCN(C(=O)c3ccco3)CC2)C1=O | -6%
Nc1nc(SCC(=O)NCC2CCCO2)n[nH]1 (configuration not stated) | -2%
CCOC(=O)c1[nH]c2ccc(OC)cc2c1NC(=O)c1ccc(OC)c(OC)c1 | -23%
CCCN(CC(=O)Nc1ccccc1Br)CC(=O)Nc1ccc(F)c(F)c1F | -25%
O=S(=O)(Cc1ccccc1)N1CCN(C/C=C/c2ccccc2)CC1 | -7%
COC(=O)CC1C(C)(C)C(O)C2CC3=C4C=C(OC)OC(c5ccoc5)[C@]4(C)CCC3[C@@]1(C)C2=O (some centres not stated) | -6%
COc1cc([C@@H]2c3cc4c(cc3[C@H](O)C3COC(=O)[C@@H]32)OCO4)cc(OC)c1OC (some centres not stated) | -8%
CN1[C@@H]2CC[C@H]1CC(OC(=O)C(CO)c1ccccc1)C2 (some centres not stated) | -10%&0%&-3%
O=C(COc1ccccc1)Nc1ccccc1Oc1ccccc1 | -11%
Cc1ccsc1/C=N/n1c(-c2ccncc2)n[nH]c1=S | 28µM*
C=CCn1c(SCc2ccccc2)nc2scc(-c3ccc(C)o3)c2c1=O | -11%
Cc1cc([N+](=O)[O-])c(C(C)(C)C)cc1N | 1%
CCOc1ccc(NC(=O)CSc2n[nH]c(N)n2)c([N+](=O)[O-])c1 | -15%
CCCN1CNC(=S)N(c2cccc(C)c2C)C1 | -14%
Cn1c(-c2ccccc2)cc(=O)c2ccccc21 | 25µM*
CCOC(=O)CCSCC(=O)Nc1nnc(C)s1 | 1%
COCCN1C(=O)C(O)=C(C(=O)c2cccs2)C1c1ccccc1 (configuration not stated) | -5%
Cc1ccc(S(=O)(=O)N2CCN(C(=O)CSC3CCCC3)CC2)c(C)c1 | 1%
CCOC(=O)C1CCCN(C(=O)Nc2ccccc2)C1 (configuration not stated) | -4%
CC1CCN(S(=O)(=O)c2ccc(NC(=O)CCN3C(=O)c4ccccc4C3=O)cc2)CC1 | -17%
Cc1ccc(C(=O)NNC(=O)c2cc3cc4ccccc4nc3s2)cc1 | -15%
COc1ccc(N2CCN(C(=O)C3COc4ccccc4O3)CC2)cc1 (configuration not stated) | -1%
Cc1cc(Nc2ncc(Cl)cc2Cl)n(-c2ccccc2)n1 | -16%
CC(C)NC(=O)c1ccc2c(c1)nnn2C | -4%
CC(c1nnnn1C(C)(C)C)N(Cc1cccnc1)Cc1ccccc1Cl (configuration not stated) | 3%
Cc1ccc(-n2c(SCn3nnc4ccccc4c3=O)nnc2-c2cccnc2)c(C)c1 | -21%
CCCCOc1ccc(C(=O)N/C(=C/C=C/c2ccccc2)C(=O)N2CCOCC2)cc1 | -16%
CC(C)CCNC1=NCCCCC1 | -7%
Cc1onc(-c2ccccc2)c1C(=O)N[C@@H]1C(=O)N2[C@@H]1SC(C)(C)[C@@H]2C(=O)O | 0%
Cc1cccnc1NC(=O)C1CCCN(S(=O)(=O)c2ccc3c(c2)oc(=O)n3C)C1 (configuration not stated) | 6%
Cc1onc(-c2ccccc2)c1-c1n[nH]c(=S)n1-c1ccc(C(=O)O)cc1 | -26%
O=C1CSc2ccccc2N1Cc1ccccc1F | -31%
CC1(C)Cc2c(C#N)c(NC3CCCCC3)nc(-c3ccco3)c2CO1 | ?
COc1cccc(-c2csc(N3CCN(C(=O)NC45CC6CC(CC(C6)C4)C5)CC3)n2)c1 | -5%
CCC(=O)NC(=S)Nc1cccc(C(C)=O)c1 | -15%
CCOC(=O)c1cnn(-c2ccccc2)c1NC(=O)c1ccc(C)cc1 | -4%
CCOC(=O)N/N=C(C)/C=C/c1ccco1 | -16%
CCN(CC)S(=O)(=O)c1ccc(/C=C/C(=O)OCC(=O)Nc2ccc(S(N)(=O)=O)cc2)cc1 | -17%
Cc1ccc(S(=O)(=O)c2ccc(Oc3cccc(C)c3)cc2)cc1 | -18%

Additional results follow.
Structure | HPGD inh
COc1cc(/C=C/C(=O)O)cc(S(=O)(=O)Nc2ccc(F)cc2)c1OC | -4%
CCOC(=O)C1=C(O)/C(=C/c2cn(CC(=O)N3CCCC3)c3ccccc23)SC1=Nc1ccccc1 | -14%
COc1cccc(CNc2ccc(S(=O)(=O)Nc3nccs3)cc2)c1O | -19%
CN(c1ccccc1)S(=O)(=O)c1cccc(NC(=O)CSc2nncs2)c1 | -22%
COCCCN(C(=O)Nc1ccc(C)c(C)c1)C(C)c1ccccn1 (configuration not stated) | -4%
C=CCn1c(SCC(=O)c2ccc(O)c(O)c2)nnc1-c1ccccc1OC | -13%
Cc1ccccc1CS(=O)(=O)CC1(O)CCN(C(=O)c2cccc(C(F)(F)F)c2)CC1 | 2%
COc1ccc(-c2nc(-c3ccccc3)oc2Nc2ccccc2C)cc1 | -8%&5%
Cc1cnc(C(=O)Nc2cccc3ncccc23)cn1 | -14%
CCCCC(=O)NCCc1c(Cc2ccccc2)[nH]c2ccccc12 | 16µM*
CCOC(=O)c1ccc(Oc2nc(OC)nc(N(C)C)n2)cc1 | -15%
COc1cccc(/C=C/C(=O)OCC(=O)Nc2cc(C(F)(F)F)ccc2Cl)c1 | ?
CC1(C)C(C=C(Cl)Cl)C1C(=O)N(Cc1ccccc1Cl)C1CCS(=O)(=O)C1 (configuration not stated) | -12%
CC1(C)CNC(=O)CC(C)(C)N1O | -5%
O=C(Nc1ccccc1)c1ccc(S(=O)(=O)N2CCOCC2)cc1 | -13%
O=C(Nc1cnn(Cc2ccccc2)c1)c1cc2nc(-c3ccco3)cc(C(F)(F)F)n2n1 | ?
CN1CCN(Cc2nc3ccccc3c(=O)n2Cc2nc(-c3ccc4ccccc4c3)cs2)CC1 | -20%
CSCC[C@H](NC(=O)CC(C)(C)C)c1nc2ccccc2[nH]1 | -7%
NC(=O)c1ccccc1N/C=C/C(=O)c1ccc(Cl)cc1 | -15%
COc1ccc(C)cc1S(=O)(=O)N(C)CC(=O)NCc1ccco1 | 1%
O=C(Nc1ccc(S(=O)(=O)NC2CCCC2)cc1)c1cnccn1 | 7.9µM*
COc1ccc(Cn2nnnc2C(c2cc3cccc(C)c3[nH]c2=O)N2CCOCC2)cc1 (configuration not stated) | -21%
CC(C)CC(=O)Nc1cc2nn(-c3ccccc3)nc2cc1Cl | ?
O=C(CCN1CCN(C/C=C/c2ccccc2)CC1)Nc1ccccc1F | -17%
CC1CCCN(c2nc3c(c(=O)[nH]c(=O)n3C)n2CCCc2ccccc2)C1 (configuration not stated) | -9%

Screening results from PubChem BioAssay.
